quorum sensing – Vibrio cholerae quorum sensing activators, luminescence (AID 686977). 9,400 tested, under 10 active. V. cholerae quorum sensing reporter, luminescence, 6 h; higher luminescence means a stronger effect; most inactives read 0. luminescence at 50 µM unless noted, or EC50 in µM where a hit was titrated;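 active means light above mean plus 3 SD and confirmed in a dose series; inconclusive means above that limit without a clear retest; inactive means below it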;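 further: raw light counts without normalisation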
* marks the source's active call; other numbers are inactive results; ? = inconclusive; [ ] = dose if it differs, or a comment. Not all compounds are listed; count on the stated rates, not on these rows.

SMILES | quorum sensing
Cc1ccccc1OCc1nc2c3cnn(C)c3ncn2n1 | 40
COc1ccc(-c2cc(C(F)(F)F)nc(S(C)(=O)=O)n2)cc1OC | 40
CN(C)c1ccc(/C=N/Nc2ccc(-n3ccnc3)nn2)cc1 | 40
COCCOC(=O)C1=C(C)NC(=O)NC1C1CC=CCC1 (stereo unspecified) | 0
Fc1ccc(NCc2cccnc2)cc1F | 0
CCCNC(=O)C1CCN(S(=O)(=O)c2ccc3nc4c(c(C(=O)O)c3c2)CCCCC4)CC1 | 0
Cc1cc(C)cc(N(CC(=O)N2CCc3ccccc32)S(=O)(=O)c2c(C)noc2C)c1 | 0
CCOC(=O)N1CCN(C(=O)c2ccccc2NC(=O)COc2ccccc2C)CC1 | 0
COCCNC(=O)c1ccc2c(=O)n(CCOC)c(=O)[nH]c2c1 | 0
CC(=O)Nc1cc2ccccc2oc1=O | 0[10 µg/mL]
Cc1ccc(CSc2nnc(-c3ccco3)o2)cc1 | 40
CCOC(=O)CSc1[nH]c(=O)cc(C)c1C#N | 40
CN1CCN(C(=O)c2cc3c(s2)-c2ccccc2S(=O)(=O)C3)CC1 | 320
CCN(CC)S(=O)(=O)c1ccc(S(=O)(=O)N2CCN(CCC#N)CC2)cc1 | 0
Cc1ccc(-c2nn(-c3cc(Cl)ccc3[N+](=O)[O-])c(=O)c3ccccc23)cc1 | 0
CC(C)(C)C(=O)Nc1ccc(S(=O)(=O)c2ccc(NC(=O)C(C)(C)C)cc2)cc1 | 0
COc1ccc(-n2nnnc2SCC(=O)N2CCOCC2)cc1 | 0
Cc1cc(C)c(S(=O)(=O)Nc2ccc(OCC(=O)O)cc2)c(C)c1 | 400
Cc1c(C(=O)Nc2ccccc2)sc2nc(-c3ccccc3)cn12 | 40
O=C(COC(=O)C(O)c1ccccc1)NC12CC3CC(CC(C3)C1)C2 (stereo unspecified) | 40
C[C@]12CC3SC3C[C@@H]1CC[C@@H]1[C@@H]2CC[C@]2(C)[C@@H](O)CC[C@@H]12 (stereo partly specified) | 0[10 µg/mL]
CCn1c(C2CC(=O)N(Cc3ccccc3)C2)nc2ccccc21 (stereo unspecified) | 0
CC(C)CNC(=O)c1cc(-c2ccc(Cl)c(Cl)c2)on1 | ?
COCc1cc(=O)n2[nH]c(C(F)(F)F)nc2n1 | 0
COCCN1Cc2cccc(C(=O)NCc3ccccn3)c2C1=O | 40
Cc1nc2c(-c3ccccc3)c(C)nn2c(C)c1CCC(=O)NC(C)CCc1ccco1 (stereo unspecified) | 0
CCOC(=O)c1[nH]c(C)c(CN(CCc2ccc(OC)c(OC)c2)C(=O)CCCC(=O)O)c1C | 40
O=C(COc1ccc(Cl)cc1Br)NNC(=O)C(=O)N1CCCCC1 | 40
COC(=O)c1cc2sc(Cl)cc2n1Cc1nc(-c2ccccc2)oc1C | 0
CN1/C(=C/C2CC(=O)N(c3cccc4ccccc34)C2=O)C(C)(C)c2ccccc21 (stereo unspecified) | 0
CCN(CC)C(=O)C(=O)c1cccn1-c1cccc(-n2cccc2C(=O)C(=O)N(CC)CC)c1C#N | 0
Cc1ccn2cc(CCNC(=O)C3CCCCC3)nc2c1 | 0
CCCN(C(=O)c1cccs1)c1nnc(-c2ccncc2)s1 | 0
Cc1ccnc(Nc2nc3ccccc3o2)n1 | 40
COc1ccc(CC(=O)Nc2ccc(S(=O)(=O)Nc3nc(C)cc(C)n3)cc2)cc1 | 0
O=C1c2ccccc2NC(c2ccccc2)N1c1ccc(O)cc1 (stereo unspecified) | 0
CCOC(=O)c1ccc(NC(=S)NCCCN2CCCCC2)cc1 | 0
CCOc1ccc(-n2c(O)c(C=NCCN(CC)CC)c(=O)[nH]c2=O)cc1 | 0
CC(C)OC(=O)CN1C(=O)S/C(=C/c2ccc(N3CCCCC3)o2)C1=O | 0
CC(C)CSc1nc2ccccc2n1CC(N)=O | 40
COCCCNc1nc(=S)[nH]c2cc(OC)c(OC)cc12 | 0
NC(=O)CCS(=O)(=O)CCN1CCCCC1 | 0
CCN1CCCC1CNC(=O)Cn1ncc2c(=O)oc3ccc(C)cc3c21 (stereo unspecified) | 0
C[C@H](CCC(=O)NCC(=O)O)[C@H]1CC[C@H]2[C@@H]3[C@H](O)C[C@@H]4C[C@H](O)CC[C@]4(C)[C@H]3C[C@H](O)[C@]12C | 0[10 µg/mL]
Cc1ccc(N=Cc2c(O)n(-c3ccc4c(c3)OCO4)c(=O)c3ccccc23)cc1 | 0
CN(C1CCCCC1)S(=O)(=O)c1ccc(NC(=S)NC(=O)c2cccs2)cc1 | 0
Cc1ccc(CC(NC(=O)c2ccccc2)C(=O)NCC(=O)O)cc1 (stereo unspecified) | ?
O=c1n(-c2ccccc2)c(=O)n2n1CCC2 | 0
CC(=O)Nc1sc2c(c1C(=O)N1CCOCC1)CCCCC2 | 0
O=C(O)CCC(=O)c1ccc2c(c1)OCCO2 | 0
CCC(=O)Nc1ccc2c(c1)nc(CN1CCN(C(C)=O)CC1)n2C | 40
Cc1ccc(-n2ncc3c(=O)[nH]c(SCC(=O)N4CCC(C)CC4)nc32)cc1C | 40
CCn1cc(C(=O)c2cccs2)c2ccccc21 | 0
O=C(c1cc2c(s1)-c1ccccc1OC2)N1CCN(c2ccccc2)CC1 | 40
COc1ccc(S(=O)(=O)N(C)c2ccc(C(=O)NCCC(C)C)cc2)cc1 | 0
O=C(Cn1c(=O)oc2cc(S(=O)(=O)N3CCCC3)ccc21)Nc1cccc(C(F)(F)F)c1 | 80
COc1ccc2c(c1)CCc1sc(NC(=O)c3ccco3)nc1-2 | 0
COc1ccccc1C(=O)NC(CCSC)C(=O)OCC(=O)NC(=O)NCc1ccco1 (stereo unspecified) | 0
CC(C)(C)OC(=O)NNC(=O)c1ccc(Cl)cc1 | 40
COC(=O)c1ccc2[nH]c(C)cc(=O)c2c1 | 360

(next part)
SMILES | quorum sensing
C[C@H](CCC(=O)O)[C@H]1CC[C@H]2[C@@H]3C(=O)C[C@@H]4CC(=O)CC[C@]4(C)[C@H]3CC(=O)[C@]12C | 0[10 µg/mL]
Cc1cc(Nc2ccc(F)cc2C)n2nc(C)nc2n1 | 0
N#CC1(c2ccccc2)CCC(=NO)CC1 (stereo unspecified) | 280
CCOC(=O)c1c(C)n(C)c2ccc(OCC(O)CN3CCC(C)CC3)cc12 (stereo unspecified) | 0
Cc1ccc(C)c(NS(=O)(=O)c2cc(Br)cnc2N)c1 | 0
C=CCn1c(CCCNC(=O)C(C)(C)C)nc2ccccc21 | ?
COc1cc2c(c(OC)c1OC)-c1ccc(O)c(=O)cc1[C@@H](N)CC2 | ?
Cc1oc(C(=O)Nc2ccc(C(=O)O)cc2)cc1COc1ccccc1 | 0
Cc1ccc(CCNC(=O)C2CCCN(S(=O)(=O)c3c(C)nn(C)c3C)C2)cc1 (stereo unspecified) | ?
COC(=O)c1cc(OC)c(OC)cc1NC(=O)Cn1nnc(-c2ccccc2Cl)n1 | 960
Cc1cccc(C(=O)OCC(=O)Nc2nccs2)c1 | 0
CCC(C)NCC(O)COCc1ccc(Cl)cc1 (stereo unspecified) | 40
COc1ccc(OC)c(CCNC(=O)CC2Oc3ccc(C)cc3NC2=O)c1 (stereo unspecified) | 0
CC(=O)NCCc1nc2ccccc2n1Cc1ccc(C)cc1 | 40
CCOC(=O)Cn1c(N)c(C(=O)OC)sc1=S | 0

Looked up one by one from the list above, six records:
SMILES | quorum sensing
COc1cc2c(c(OC)c1OC)-c1ccc(O)c(=O)cc1[C@@H](N)CC2 | ?
CC(=O)NCCc1nc2ccccc2n1Cc1ccc(C)cc1 | 40
COC(=O)c1cc(OC)c(OC)cc1NC(=O)Cn1nnc(-c2ccccc2Cl)n1 | 960
Cc1ccc(CCNC(=O)C2CCCN(S(=O)(=O)c3c(C)nn(C)c3C)C2)cc1 (stereo unspecified) | ?
COc1ccc(OC)c(CCNC(=O)CC2Oc3ccc(C)cc3NC2=O)c1 (stereo unspecified) | 0
C[C@H](CCC(=O)O)[C@H]1CC[C@H]2[C@@H]3C(=O)C[C@@H]4CC(=O)CC[C@]4(C)[C@H]3CC(=O)[C@]12C | 0[10 µg/mL]

Later entries
SMILES | quorum sensing
COCCCNc1ncnc2nc[nH]c12 | 0
c1ccc2nc(N3CCNCC3)ccc2c1 | 0[10 µg/mL]
COc1ccc2nc(SCC(=O)N3CCNC3=O)[nH]c2c1 | 40
CCOC(=O)CSc1nc2cc(C(=O)NCc3ccco3)ccc2c(=O)n1C1CCCCC1 | 40
Clc1ccc(OCc2nc(-c3ccncc3)no2)c(Br)c1 | 0
CCCC(=O)N1CC(=O)Nc2ccc(F)cc2C1c1ccccc1 (stereo unspecified) | 40
Cc1cccc(-c2nc(=S)c3c(o2)CCCC3)c1 | 0
C[C@@H](O)[C@H]1C(=O)N2C(C(=O)O)=C(SCCN=CN)C[C@H]12 | 40[10 µg/mL]
CC(C)CN(CC(C)C)c1nnc(NC(=O)Cn2c(=O)oc3ccccc32)s1 | 40
Cc1nn(-c2cccc3cccnc23)c(=O)c2ccccc12 | 80
COc1ccc2o/c(=N\O)c(C(=O)Nc3ccccc3OC)cc2c1 | 0
COCCn1c(SCC(=O)NCC2CCCO2)nc2c(c1=O)SC(C)C2 (stereo unspecified) | 0
O=C(Nn1cnnc1)c1cc(-c2ccccn2)nc2ccccc12 | 0
O=C1OC(CN2CCOCC2)CN1/N=C/c1ccc([N+](=O)[O-])o1 (stereo unspecified) | 0[10 µg/mL]
CC(C)C(NC(=S)NCc1ccccc1)C(=O)O (stereo unspecified) | 0

Reformatted as labelled records: 2 of the compounds above.
C=CCn1c(CCCNC(=O)C(C)(C)C)nc2ccccc21
- quorum sensing: ?
COc1cc2c(c(OC)c1OC)-c1ccc(O)c(=O)cc1[C@@H](N)CC2
- quorum sensing: ?

The main list resumes with the 6 entries that preceded the break.
SMILES | quorum sensing
Cc1nn(-c2cccc3cccnc23)c(=O)c2ccccc12 | 80
COc1ccc2o/c(=N\O)c(C(=O)Nc3ccccc3OC)cc2c1 | 0
COCCn1c(SCC(=O)NCC2CCCO2)nc2c(c1=O)SC(C)C2 (stereo unspecified) | 0
O=C(Nn1cnnc1)c1cc(-c2ccccn2)nc2ccccc12 | 0
O=C1OC(CN2CCOCC2)CN1/N=C/c1ccc([N+](=O)[O-])o1 (stereo unspecified) | 0[10 µg/mL]
CC(C)C(NC(=S)NCc1ccccc1)C(=O)O (stereo unspecified) | 0
Cc1cccc(NS(=O)(=O)c2ccc(Br)s2)n1 | 40
Cc1ccc2[nH]c(=O)c(CN(CCCN(C)C)C(=O)Nc3ccc(Cl)cc3)cc2c1 | 0
O=C(CSc1nnc(-c2cccs2)n1-c1ccccc1)N1CCN(C(=O)c2ccco2)CC1 | 0
O=P(O)(CN1CCCCCC1)CN1CCCCCC1 | 0
O=C1c2ccccc2C(=O)N1C/C=C/CN1C(=O)c2ccccc2C1=O | 360
CCN1/C(=C\C=C\C2=[N+](CC)c3ccccc3C2(C)C)C(C)(C)c2ccccc21 | 0
COc1ccc(Nc2nc(C)cc(C)c2C#N)cc1OC | 0
CCOc1ccc(C2N(c3ccc(OC)cc3)C(=O)C3CCCN32)cc1OC (stereo unspecified) | 280
COc1ccc(C2=NOC(C(=O)Nc3c(C)n(C)n(-c4ccccc4)c3=O)C2)cc1 (stereo unspecified) | 0
CCCC(=O)N=C1SC2CS(=O)(=O)CC2N1c1ccc(C(C)=O)cc1 (stereo unspecified) | 0
CC(C)(C)n1c(=O)[nH]c2c(c1=O)CCC2 | 0
Cc1cc(C(=O)CN2CC(C)OC(C)C2)c(C)n1-c1ccccc1 (stereo unspecified) | 0
C[C@@H]1O[C@@H](O[C@H]2C[C@@H](O)[C@]3(CO)[C@H]4[C@H](O)C[C@]5(C)[C@@H](C6=CC(=O)OC6)CC[C@]5(O)[C@@H]4CC[C@]3(O)C2)[C@H](O)[C@H](O)[C@H]1O | 0[10 µg/mL]
Nc1c(-c2ccccc2)cnn1C1CCS(=O)(=O)C1 (stereo unspecified) | 0
O=C(Cn1ncc2c(=O)oc3ccccc3c21)NCC1COc2ccccc2O1 (stereo unspecified) | 0
Cn1c(CN2CCCC2)nc2cc(NS(=O)(=O)c3ccc(Cl)cc3)ccc21 | ?
COC(=O)c1cc(=O)n(CCc2ccc(OC)c(OC)c2)c(=Nc2ccc(F)c(Cl)c2)s1 | 40
CN(C)[C@@H]1C(=O)C(C(=O)NCN2CCCC2)=C(O)[C@@]2(O)C(=O)C3=C(O)c4c(O)cccc4[C@@](C)(O)C3CC12 (stereo partly specified) | 0[10 µg/mL]
COc1ccc(C/C(=N\O)c2ccc(OC)cc2)cc1 | 0
CC(=O)c1c(C)nc2ccc(Br)cc2c1C(=O)O | 0
Cn1c(=O)c2c(nc(N3CCCCCC3)n2CC(=O)c2ccccc2)n(C)c1=O | 40
COc1cccc(C(=O)N2CCN=C2SCc2cccnc2)c1OC | 0
Cn1c(SCc2cccc3ccccc23)nnc1-c1ccco1 | 0
CCOc1nc(-c2ccccc2O)nc2ccccc12 | 0
COc1ccc(/C=C/C(=O)NCC(=O)N/N=C/c2cc(Br)ccc2OCc2ccccc2)cc1 | 0
COc1ccc(NC(=O)c2onc(C)c2Cl)cc1OC | 40
O=C1CC(C(=O)N2CCOCC2)C2(CCCCC2)O1 (stereo unspecified) | 0
COc1cccc2c(=O)cc(C)n(CC(=O)Nc3ccc(C)c(C)c3)c12 | 0
O=C1CC(N2CC=C(c3ccccc3)CC2)C(=O)N1c1ccc(F)cc1 (stereo unspecified) | 0
CCCCCNC(=O)C(C)Sc1ccc(Cl)cc1 (stereo unspecified) | 0
CC(C)C(c1nnnn1Cc1ccc2c(c1)OCO2)N1CCN(c2ccccc2)CC1 (stereo unspecified) | 0
O=C(O)c1cccc(CSc2nnc(COc3ccccc3)o2)c1 | 40
O=C(NCCO)c1cccc(Nc2nc(-c3ccccc3)c3cc(Cl)ccc3n2)c1 | 0
CCOC(=O)N1CCN(C(=O)CN(c2ccc(OCc3ccccc3)cc2)S(C)(=O)=O)CC1 | 40
Cc1ccc(-c2cn3cccnc3n2)cc1NC(=O)c1ccc(Br)o1 | 0
O=C(CSc1nnc(Cc2cc(=O)[nH]c(=O)[nH]2)n1-c1ccccc1)N1CCCCC1 | 0
O=C(O)c1cc(NCc2ccccc2)ccc1N1CCOCC1 | 0
Nc1ccc(-c2nc3ccc(N)cc3o2)cc1 | 0
Cn1c(C(=O)NCCN2CCc3ccccc3C2)cc2c(=O)[nH]c3ccccc3c21 | 0

Compound activity from PubChem.
